Screening data deposited in PubChem BioAssay by Emory University Molecular Libraries Screening Center.
Measles inh: inhibitors of measles virus growth in cells, primary screen, measles RdRp inhibitor project, cell-based, single point, HTS; z-score (concentration not given with the values); infected Vero cells, GFP fluorescence, 64 h; active compounds read low; 33,000 compounds, 0.1% hits;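 active = z-score under -3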;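 also: score is relative to mean and SD of the compound wells of a plate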
* = called active by the depositor. Not all compounds are listed (hit frequency here may not be typical).

SMILES | Measles inh
O=C(Nc1ccccc1F)C1CC(=O)N(CCO)C(=Nc2ccccc2)S1 (configuration not stated) | -0.36
N#Cc1c(N)nc2c(c1-c1ccccc1)CCCCC2 | 0.53
Cc1ccc2oc(N)nc2c1 | 0.23
COc1cc2c(cc1OC)C(C(=O)Nc1ccc(F)cc1)C(c1cccs1)N(C)C2=O (configuration not stated) | 0.43
Fc1cccc(Nc2nc(-c3ccncc3)nc3ccccc23)c1 | 0.05
Nc1cc(=O)[nH]c(SCC(=O)Nc2nccs2)n1 | 0.32
CC(C)c1ccc(C(=O)CC2(O)C(=O)Nc3ccc(Br)cc32)cc1 (configuration not stated) | -0.1
CNc1cc(NC)c2ncnc3c2c1C(=O)c1ccccc1-3 | -0.01
O=C(COc1ccccc1)N1N=C(c2ccc(F)cc2)CC1(O)C(F)(F)F (configuration not stated) | 0.15
CCCCNc1ccc2cccc(O)c2n1 | -0.55
Cc1cc(C)nc(SCC(=O)Nc2ccc3ccccc3c2)n1 | 0.24
O=C(Nc1cccc(C(F)(F)F)c1)c1ccc([N+](=O)[O-])o1 | -1.6
CCOC(=O)CNC(=O)C1c2cc(OC)c(OC)cc2C(=O)N(C)C1c1ccccc1F (configuration not stated) | -0.72
COC(=O)c1ccccc1NC(=O)CCCn1nc([N+](=O)[O-])cc1C | 0.08
CCOc1ccc(S(=O)(=O)Nc2ccc(F)cc2)c2cccnc12 | 0.53
O=C(NCc1ccc(F)cc1)c1ccc2c(=O)n(-c3cccc(C(F)(F)F)c3)c(=S)[nH]c2c1 | -1.2
CC(=O)N1CCc2cc(Br)cc(S(=O)(=O)Nc3cccc(F)c3)c21 | 0.07
O=C(C1CCC(CNS(=O)(=O)c2cccs2)CC1)N1CCN(c2ccc(F)cc2)CC1 (configuration not stated) | 0.03
CCOc1ccc(N=C2SC(C(=O)Nc3ccccc3F)CC(=O)N2C)cc1 (configuration not stated) | -0.27
Cc1ccc2[nH]c(=O)c3cc(C(=O)NC4CCCCC4)sc3c2c1 | 1.5
Nc1ccc(C(=O)NCCc2ccccc2)cc1[N+](=O)[O-] | -0.58
CCN(C(=O)CSc1ncccc1C(=O)O)c1cccc(C)c1 | 3.6
N#Cc1cnc(Nc2ccccc2)c(C#N)c1Nc1ccccc1 | -0.59
CCOc1ccc(NC(=O)c2c(NCc3ccncc3)sc3c2CCCCC3)cc1 | 0.47
O=C(O)C1CC(=O)N(CCc2ccccc2)C(=Nc2ccc(OC(F)(F)F)cc2)S1 (configuration not stated) | 0.26
COc1ccc(C(=O)NCCN2CCOCC2)cc1OC | -0.59
Oc1ccc(Nc2nc(-c3ccc(Cl)cc3)nc3ccccc23)cc1 | -0.29
O=C(NCCc1ccccc1)c1c[nH]c2ccc(S(=O)(=O)Nc3ccccc3F)cc2c1=O | 1.1
O=[N+]([O-])c1cccc(Nc2nc(-c3cccs3)cs2)c1 | 1.8
CCOc1ccc(CC(=O)Nc2sc3c(c2C#N)CCCC3)cc1OCC | -0.64
COc1ccc(C(=O)C2C(c3ccc(C(C)(C)C)cc3)NC(=O)NC2(O)C(F)(F)F)cc1 (configuration not stated) | -0.66
Cc1ccc(S(=O)(=O)N2CCC(C(=O)N3CCC(C(=O)NC(C)c4ccccc4)CC3)CC2)cc1 (configuration not stated) | 1
O=C(Nc1cc(N=Cc2cc(Cl)ccc2O)ccc1Cl)c1ccccc1 | 0.74
COc1cc(CNCc2ccncc2)cc(OC)c1OC | 0.08
COc1ccc(CN2CCN(C(=O)c3ccco3)CC2)cc1OC | -1.2
CCOC(=O)C1=C(C)NC2=C(C(=O)C(C(=O)OCC)C(c3ccc(OC)cc3)C2)C1c1ccc(Br)cc1 (configuration not stated) | -0.53
Fc1ccc(C2=Nn3c(COc4ccc(Cl)cc4)nnc3SC2)cc1 | 0.89
O=C(CN1C(=O)C2CC=C(Cl)CC2C1=O)N1CCCCC1 (configuration not stated) | 0.12
Cc1ccc2oc(-c3cc(NC(=O)c4cccnc4)ccc3O)nc2c1 | -0.22
COc1ccc(C2CC(=O)C3=C(C2)NC(C)=C(C(=O)OC(C)C)C3c2cc3c(cc2Br)OCO3)cc1 (configuration not stated) | 1.5
O=C(NCCc1c[nH]c2ccccc12)c1ccc(Cn2c(=S)[nH]c3cc4c(cc3c2=O)OCO4)cc1 | -1.2
Clc1cccc(-n2cc(-c3ccccc3)c3c(NC4CCCC4)ncnc32)c1 | 3.4
CC(C)C1N=C2c3ccccc3N=C(SCC#N)N2C1=O (configuration not stated) | -0.23
O=C(Nc1nc(-c2ccc(F)cc2)cs1)c1ccc(S(=O)(=O)N2CCc3ccccc32)cc1 | -0.37
CC1CCc2c(sc3nc(=S)sc(N)c23)C1 (configuration not stated) | -1.4
Cc1ccc(C(C)C)c(OCC(=O)Nc2ccc(C)c(C)c2)c1 | 0.28
COc1ccc(N2C(=O)c3cccc4c(Cl)ccc(c34)C2=O)cc1 | 0.03
CCOC(=O)c1nn(-c2ccc(Br)cc2)cc1C(=O)c1nc2ccccc2s1 | -2.7
c1ccc(CN2CCN(Cc3ccccc3)C2c2cccnc2)cc1 | -0.79
Cc1nnc(Nc2ccccc2)[nH]c1=O | -0.89
Cc1c(CC(C)C)c(=O)oc2cc(OCC(=O)c3ccccc3)ccc12 | 0.58
CCCNC(=O)c1cnn2c(C)c(Cc3ccccc3)c(C)nc12 | -0.98
CCN(CC)c1ccc(C=Nc2ccc(Nc3ccccc3)cc2)c(O)c1 | 2.4
COc1cccc(N=c2oc3c(C)ncc(CO)c3cc2C(=O)Nc2ccc(C)cc2)c1 | -0.08
O=C(NCCc1ccccc1)c1cc2c(ccc3ccccc32)o1 | -0.78
Cn1cc(S(=O)(=O)CC(=O)N2CCOCC2)c2ccccc21 | 0.86
COc1ccccc1C(=O)N=C(c1ccccc1)c1ccccc1 | -0.18
COC(=O)CN1C(=O)c2ccccc2S1(=O)=O | -0.19
Cc1c(Cl)cccc1NC(=O)c1ccc(Br)cc1 | 0.01
CCOc1ccc(NC(=O)c2cnn3c2NC(c2ccc(C)cc2)CC3C(F)(F)F)cc1 (configuration not stated) | -0.05

2 records drawn at random from the list so far:
SMILES | Measles inh
Cc1ccc(S(=O)(=O)N2CCC(C(=O)N3CCC(C(=O)NC(C)c4ccccc4)CC3)CC2)cc1 (configuration not stated) | 1
COc1ccc(C(=O)NCCN2CCOCC2)cc1OC | -0.59

A draw from above in order of length of the SMILES, descending:
SMILES | Measles inh
CCOc1ccc(NC(=O)c2cnn3c2NC(c2ccc(C)cc2)CC3C(F)(F)F)cc1 (configuration not stated) | -0.05
COc1cccc(N=c2oc3c(C)ncc(CO)c3cc2C(=O)Nc2ccc(C)cc2)c1 | -0.08
CCN(CC)c1ccc(C=Nc2ccc(Nc3ccccc3)cc2)c(O)c1 | 2.4
O=C(NCCc1ccccc1)c1cc2c(ccc3ccccc32)o1 | -0.78
Cc1nnc(Nc2ccccc2)[nH]c1=O | -0.89

Next section
SMILES | Measles inh
COC(=O)c1ccccc1NC(=O)c1ccc(F)cc1 | -0.19
CSc1ccc(CN2CCN(Cc3cccc([N+](=O)[O-])c3)CC2)cc1 | 0.02
Cc1ccccc1OCC(=O)Nc1ccc(-c2nc3cc(C(C)C)ccc3o2)cc1 | 0.05
O=C(NCc1ccc(F)cc1)c1ccc(NCC2CCCO2)c([N+](=O)[O-])c1 (configuration not stated) | -0.16
Cc1cc(NC(=NS(=O)(=O)c2ccccc2)c2ccccc2)no1 | -1.4
Cc1c(NC(=O)COc2ccc(Cl)cc2C2CCCCC2)c(=O)n(-c2ccccc2)n1C | 0.57
Cc1cccc(NC(=O)CCC2=NS(=O)(=O)c3ccccc3N2)c1 | 1.3
CCOc1ccc(NC(=O)c2cnc(Nc3ccccc3OC)c3ccccc23)cc1 | -0.62
Cc1c(C)c2ccc(OC(C)C(=O)O)c(C)c2oc1=O (configuration not stated) | 0.2
O=C(CSc1ncnc2sc3c(c12)CCCC3)Nc1ccccc1Cl | -0.12
O=C(c1ccc2c(=O)n(Cc3ccco3)c(=S)[nH]c2c1)N1CCN(c2ccccc2)CC1 | 0.14
O=C(CNS(=O)(=O)c1cccc2nonc12)N1CCN(c2ccc(F)cc2)CC1 | -0.43
CCOC(=O)c1c(C)nc2cc(C(=O)Nc3ccc(C)c(C)c3)nn2c1C | 0.06
CCN(CC)S(=O)(=O)c1ccc2c(c1)N(CC(=O)NC1CC1)C(=O)CS2 | 1.2
COC(=O)C(Br)(C(=O)OC)C(C[N+](=O)[O-])c1ccccc1 (configuration not stated) | 0.47
CCOC(=O)c1ccc2c(c1)C1C=CCC1C(c1ccc(C(C)C)cc1)N2 (configuration not stated) | 1.6
COc1ccc(OCCSc2nc3ccc(Br)cc3[nH]2)cc1 | -1.5
C=CCOC(=O)C1=C(C)NC(=O)NC1c1cn(-c2ccccc2)nc1-c1ccc(F)cc1 (configuration not stated) | -0.52
Cc1ccc(N2CC(=O)Nc3ccccc3S2(=O)=O)cc1C | 4.2
COc1ccccc1C1NC(=O)NC(C)=C1C(=O)Nc1cccc(Cl)c1 (configuration not stated) | 1.9
CCOC(=O)c1sc(N2C(=O)C(=O)/C(=C(/O)c3ccccc3)C2c2ccc(C(C)(C)C)cc2)nc1C (configuration not stated) | 2.6
COc1cccc(C2=CC(c3ccc(OC)c(OC)c3)NC(=S)N2)c1 (configuration not stated) | -0.36
Cc1ccc(C(=O)Nc2ccc(Br)cn2)cc1C | -0.15
CCOc1ccc(-n2c(=O)c3c(C)c(C(=O)N(C)C)sc3n(CC(=O)Nc3ccccc3F)c2=O)cc1 | 1.1
O=C(c1ccc2c(=O)n(Cc3cccc(Br)c3)c(=S)[nH]c2c1)N1CCOCC1 | -0.26
CC(=O)Oc1ccc(C2C(C(=O)OC(C)C)=C(C)N=C3SCCC(=O)N32)cc1 (configuration not stated) | -1.1
O=C1Nc2ccccc2Oc2ccc(N=Cc3ccc([N+](=O)[O-])cc3)cc21 | -0.16
Cc1ccc(Cl)cc1N1CCN(C(=O)CC2Nc3c4ccccc4nc(=S)n3C2=O)CC1 (configuration not stated) | -0.92
O=C(NC1CCCC1)c1ccc(Sc2ccc(Br)cc2)c([N+](=O)[O-])c1 | -0.69
COc1ccc(S(=O)(=O)NCc2ccc(C(=O)N(C)Cc3ccco3)cc2)cc1 | 0.67
COc1ccccc1N(C)CCNC(=O)c1sc2ncnc(N3CCOCC3)c2c1C | 0.36
Cc1cccc(N=c2oc3cc(O)ccc3cc2C(N)=O)c1 | 1.5
O=C(O)CCN1C(=O)NC2NC(=O)NC21 (configuration not stated) | -0.79
S=c1nc(-c2cccc(Cl)c2)[nH][nH]1 | 1.1
CC12CC(NC(=O)N1c1ccc(F)cc1)c1cc([N+](=O)[O-])ccc1O2 (configuration not stated) | -0.84
CCOC(=O)c1cnc2c(-c3cccc(Br)c3)cnn2c1C | -1.1
Cc1ccc(CNC(=O)c2ccc(CNS(=O)(=O)c3c(C)cc(C)cc3C)cc2)cc1 | 1.5
CCc1cccc(CC)c1NC(=O)C(=O)NCCC(C)C | -0.53
CC(=O)Nc1ccc(N=Cc2c(C)c(Cl)c(C)c([N+](=O)[O-])c2O)cc1 | 0.33
O=C(CS(=O)(=O)c1cn(Cc2ccccc2Cl)c2ccccc12)Nc1ccc2c(c1)OCCO2 | -0.61
Nc1ccc2oc(-c3ccc(-c4nc5ccc(N)cc5[nH]4)cc3)nc2c1 | -0.55
O=S(=O)(c1ccc(C2CCCCC2)cc1)N1CCCC1 | -0.37
Cc1nc2ccccc2n1CC(O)COc1ccc(C2C=CCC2)cc1 (configuration not stated) | 0.41
Cc1ccc(NC(=O)c2cc(S(=O)(=O)N(C)Cc3ccccc3)ccc2F)cc1Cl | 1.2
Cc1cccn2c(NC3CCCCC3)c(-c3cccnc3)nc12 | -1.5
Cc1onc(-c2ccccc2Cl)c1C(=O)Nc1ccc(Oc2ccccc2)cc1 | 0.71
O=C(Cn1cnc2ccccc2c1=O)NCCC(=O)N1CCCC1 | -0.51
O=c1c2sccc2nc(SCc2nc3ccccc3[nH]2)n1Cc1ccccc1F | -1.7
Cc1onc(-c2ccccc2Cl)c1C(=O)Nc1sc(C)c(C)c1C(=O)OC(C)C | -0.54
Cc1cccc(OCCn2c(=N)n(CC(N)=O)c3ccccc32)c1 | -0.19
Clc1cccc(Cc2cn3cc(-c4ccccc4)nc3s2)c1 | 0.08
C=CCn1c(-c2nonc2NC(=O)CC)nc2ccccc21 | -0.57
O=C1CC(c2cccc(OCc3ccccc3)c2)c2cc3c(cc2N1)OCCO3 (configuration not stated) | 1.1
COc1ccc(C2C(C(=O)OCc3ccccc3)=C(C)NC3=C2C(=O)CCC3)c(OC)c1 (configuration not stated) | -0.6
COC(=O)c1ccc(N2C(=O)C3ON(c4ccccc4C)C(c4ccc(F)cc4)C3C2=O)cc1 (configuration not stated) | 0.15
Oc1c(I)cc2oc3c(c2c1CNc1ccc(Br)cc1)CCCC3 | -2.3
O=C(Cn1cc(C(=O)C(F)(F)F)c2cc(Br)ccc21)N1CCCCC1 | -0.91
Cc1ccc(-n2nc(C)c(S(=O)(=O)c3ccccc3)c2OC(=O)c2ccc3c(c2)OCO3)c(C)c1 | -0.55
CN(Cc1ccccc1)Cc1c(O)ccc2c(=O)c(-c3ccccc3)c(C(F)(F)F)oc12 | -0.91
Cc1cc(Br)c2c(c1)C(O)(N1CCCCCC1)C(=O)N2 (configuration not stated) | -0.18

Given in markdown: part of the list above
| smiles | Measles inh |
| --- | --- |
| C=CCn1c(-c2nonc2NC(=O)CC)nc2ccccc21 | -0.57 |
| O=C1CC(c2cccc(OCc3ccccc3)c2)c2cc3c(cc2N1)OCCO3 (configuration not stated) | 1.1 |
| COc1ccc(C2C(C(=O)OCc3ccccc3)=C(C)NC3=C2C(=O)CCC3)c(OC)c1 (configuration not stated) | -0.6 |
